Screens from PubChem BioAssay.
Sa growth inh = inhibitors of Staphylococcus aureus growth at 42 °C | 170,000 tested, 0.53% active | relative growth, % (test concentration not listed) | S. aureus RN4220 growth, OD600, 20 h; stronger effect = lower value | AID 720641;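 active = growth at 42 °C up to 50% and 20 or more points under that at 30 °C, or under 10% at both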;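 also: 300 nL library stock went into each well; scaled to the means of positive and negative controls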
HCMV UL50-53 inh = cytomegalovirus nuclear egress complex inhibition. HTRF UL50-UL53 interaction, normalized percent inhibition. inhibition, % (test concentration not listed). 190,000 tested, 0.15% active;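 active = both replicates at 50% or more, plus weaker picks with an unusually low signal ratio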;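 also: stock transfer was 100 nL into about 20 µL; 0% = negative control wells and 100% = wells with untagged competitor protein; inactives centre near -12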
GIV Gai3 FP = blocks GIV peptide binding to rat Galpha-i3; P08753; Galpha-i3/FITC-GIV peptide fluorescence polarization, 90 min; stronger effect = lower value; scaled: aluminum fluoride 0%, vehicle 100%; percent of control (FP), % (no concentration beside the values); 210,000 tested, 0.42% active; AID 1224905;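 active = replicate mean at 85% of control or lower, very high polarization wells dropped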;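 also: wells of about 15 µL received 100 nL stock; the first replicate is given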
Target sequence (P08753 whole entry, looked up): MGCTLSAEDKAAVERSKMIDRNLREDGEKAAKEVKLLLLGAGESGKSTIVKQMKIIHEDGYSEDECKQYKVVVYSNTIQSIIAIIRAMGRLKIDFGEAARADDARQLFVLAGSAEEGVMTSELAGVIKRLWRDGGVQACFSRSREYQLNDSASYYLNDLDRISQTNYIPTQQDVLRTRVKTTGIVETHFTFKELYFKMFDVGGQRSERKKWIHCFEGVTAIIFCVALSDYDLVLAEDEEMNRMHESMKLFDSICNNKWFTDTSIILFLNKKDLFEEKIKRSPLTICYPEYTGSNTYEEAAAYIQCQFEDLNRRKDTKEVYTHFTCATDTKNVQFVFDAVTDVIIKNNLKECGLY
Sa growth inh second temp = also measured in Sa growth inh; calls as there; relative growth, %; measured here: growth at 30 °C;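 optical density after 20 h as mean of two plates; 100% = untreated growth and lower means inhibition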
* marks the source's active call; other numbers are inactive results; · = no result given; & = joins results of further samples.

mol,Sa growth inh,Sa growth inh second temp,HCMV UL50-53 inh,GIV Gai3 FP
CC(C)(C)OC(=O)NCC1CCN(S(=O)(=O)Cc2ccccc2)CC1,102,96,8,104
O=C(Nc1ccc(Cl)cc1)c1ccc2c(c1)N(Cc1ccccc1)C(=O)c1ccccc1S2(=O)=O,99,93,14,105
COC(=O)c1c(O)c2ccccc2[nH]c1=O,100,81,-28,99
COC(=O)c1cc(S(=O)(=O)N2CC=C(c3ccccc3)CC2)c[nH]1,·,·,-294,102
COc1ccc(-n2nc3c(c2NC(=O)c2ccccc2)CSC3)cc1,99,66,10,104
NC(=O)CSc1nnc2n(-c3ccccc3)c(=O)c3c(n12)-c1ccccc1CC31CCCC1,93,101,-13,106
COc1ccc(NC(=O)Cn2c(=O)n(-c3ccc(OC)cc3)c(=O)c3sc4ccccc4c32)cc1,92,90,5,112
CCCc1cc(=O)[nH]c(-n2nc(C)cc2NC(=O)C2CC(=O)N(c3ccc(C)c(C)c3)C2)n1 (stereo not given),·,·,-4,98
COC(=O)C(C)NC(=O)c1cn(-c2ccccc2)nc1-c1ccc(F)cc1 (stereo not given),87,85,-16,·
COc1ccc(CNC(=O)CN(c2ccccc2OC)S(C)(=O)=O)cc1,89,82,-20,97
Cc1ccc(S(=O)(=O)N2CCN(c3cc(=O)n4nc(-c5ccccc5)sc4n3)CC2)c(C)c1,·,·,3,101
CCOC(=O)C1=C(C)Nc2nnnn2C1c1cc(OC)ccc1OC (stereo not given),·,·,-12,98
CCOC(=O)c1cc(C)n(-n2cnnc2)c1C,96,99,-2,102
CN(Cc1ccccc1)S(=O)(=O)c1nnc(NC(=O)c2cccc(Cl)c2)s1,96,33,-12,102
COc1ccc(C(=O)NCC(c2cccs2)S(=O)(=O)c2cccs2)cc1 (stereo not given),98,83,·,100
O=C1C2N=NN(Cc3ccccc3)C2C(=O)N1c1ccccc1 (stereo not given),99,103,7,100
Cc1ccc(SCCC(=O)Nc2ccc(CC#N)cc2)cc1,111,75,-3,97
CCS(=O)(=O)N1CCc2cc(C(=O)CSc3nnc(C)s3)ccc21,118,102,15,·
CC1(C)Cc2ccccc2C(CSc2nc(-c3ccco3)cc(C(F)(F)F)n2)=N1,82,85,-7,·
CCCCc1ccc(NC(=O)CSc2nc3ccccc3nc2N2CCCCC2)cc1,75,89,-33,107
COc1ccc(-c2coc3cc4oc(=O)c(CC(=O)O)c(C)c4cc23)cc1,93,93,·,97
N#Cc1c(C(F)(F)F)cc(-c2cccs2)nc1S/C=C/C(=O)c1ccccc1,104,86,-32,104
COC(=O)CSc1nc2sc3c(c2c(=O)n1Cc1ccccc1)CCC(C(C)(C)C)C3 (stereo not given),93,87,-52,109
CC1CCN(C(=O)CSc2nc(-c3ccccc3)nc3cc(=O)[nH]n23)CC1,·,·,-36,98
Cc1cc(-c2cc(S(=O)(=O)N3CCCCCC3)c(C)s2)on1,·,·,5,108
CCN(CC)S(=O)(=O)c1cc(C(=O)NC(C)(C)C)ccc1Cl,112,89,-13,·
Cc1ccccc1NC(=O)c1c(C)oc2ccc(O)c(CN3CCCC3)c12,109,87,-11&3,103&102
CCc1ccc(NC(=O)CCc2c(C)n(C)c3cc(-c4ccccc4C)nn3c2=O)cc1,120,83,·,106
O=S1(=O)CCN(Cc2ccc(Cl)c(Cl)c2)CC1,·,·,-5,107
Clc1cccc(COc2cccc3ccc(N4CCCC4)nc23)c1,·,·,-28,99

Fetched one by one from the entries so far:
mol,Sa growth inh,Sa growth inh second temp,HCMV UL50-53 inh,GIV Gai3 FP
CC1(C)Cc2ccccc2C(CSc2nc(-c3ccco3)cc(C(F)(F)F)n2)=N1,82,85,-7,·
CCS(=O)(=O)N1CCc2cc(C(=O)CSc3nnc(C)s3)ccc21,118,102,15,·

Returning to the listing, starting four compounds before the break.
mol,Sa growth inh,Sa growth inh second temp,HCMV UL50-53 inh,GIV Gai3 FP
Cc1ccccc1NC(=O)c1c(C)oc2ccc(O)c(CN3CCCC3)c12,109,87,-11&3,103&102
CCc1ccc(NC(=O)CCc2c(C)n(C)c3cc(-c4ccccc4C)nn3c2=O)cc1,120,83,·,106
O=S1(=O)CCN(Cc2ccc(Cl)c(Cl)c2)CC1,·,·,-5,107
Clc1cccc(COc2cccc3ccc(N4CCCC4)nc23)c1,·,·,-28,99
CC(C)CN(CC(C)C)C(=O)c1cc(-c2ccc(Cl)cc2)n[nH]1,97,85,-28,102
Cc1nn2c(=O)cc(CSc3nc4ccc(NC(=O)c5ccco5)cc4s3)nc2s1,107,91,-29,108
CC(C)c1cccc2c1OC(C(C)C)C(=O)N2 (stereo not given),95,98,-10,100
CCSCCOC(=O)C1=C(C)NC2=C(C(=O)CC(C)(C)C2)C1c1coc2ccccc2c1=O (stereo not given),·,·,-36,104
C=CCNC(=S)N(C)C1CCS(=O)(=O)C1 (stereo not given),103,106,6,107
N#CNC(=NC1CCCCC1)NC1CCCCC1,114,90,0,104
CCOC(=O)N1CCC(NC(=O)CCCC(=O)O)CC1,102,95,7,103
Cc1nn(-c2ccccc2)c(N)c1C(NC(=O)c1ccccc1)(C(F)(F)F)C(F)(F)F,113,84,·,102
Cc1c(C(=O)N(C)C)sc2[nH]c(=O)n(-c3ccccc3C(F)(F)F)c(=O)c12,90,97,·,108
Cc1ccc(CN2C(=O)CSc3ccc(NC(=O)NCCC4=CCCCC4)cc32)cc1,98,91,·,97
Cc1cccc(CN2C(=O)c3ccccc3Sc3ccc(C(=O)NCc4ccco4)cc32)c1,86,86,·,102
OCCNc1nc(-c2ccccc2)c2cc(Br)ccc2n1,·,·,-36,103
O=c1c(-c2cccc(C(F)(F)F)c2)[n+]([O-])c2ccccc2n1O,130,70,-94,95
CN(CC(=O)Nc1ccc(Cl)c(C(F)(F)F)c1)c1ccc(S(=O)(=O)N2CCCCC2)cn1,80,93,0,·
O=C(NCCO)C(=O)NCC(c1ccc2c(c1)OCO2)N1CCOCC1 (stereo not given),129,89,·,94
C/C(=C\c1ccccc1)C(=O)NC1CCCC1,115,102,-3,106
COc1ccccc1N1CCN(C(=O)C(C)Sc2nc(-c3ccccc3)cc(C(F)(F)F)n2)CC1 (stereo not given),·,·,-10,103
O=c1c(O)c(N2CCc3ccccc3C2)c1=O,·,·,4,109
Cc1ccc(NC(=O)Cn2c(=O)n(CCCCCC(=O)NCc3ccc(F)cc3)c(=O)c3sccc32)cc1C,87,88,17,107
O=C(/C=C/c1ccc(C(F)(F)F)cc1)OC1CCCCC1=O (stereo not given),81,95,-21,·
CCCn1c(=O)c2ccc(C(=O)NC(C)C)cc2n2c(SCC(=O)c3cc(C)ccc3C)nnc12,·,·,-39,107
CCCN(CCC)C(=O)Cn1nnc2sc3c(c2c1=O)CCCC3,68,61,-104,105
CCCNC(=O)c1ccc(C2SCCCS2)cc1,103,82,-39,·
Cc1cc(N)cc2[nH]c(-c3ccc(N)cc3)nc12,98,122,7,·
CCOc1cc(-c2nnc(SCC(=O)NCc3ccc(C)cc3)nc2-c2ccc(OC)c(OCC)c2)ccc1OC,103,84,·,101
CCOC(=O)CSc1nnc(Nc2ccccc2OC)s1,72,87,-24,·
O/N=C(/c1ncon1)N1CCN(c2ccccc2)CC1,101,84,-24,105
CC1CN(C(=O)C2CCCN2S(=O)(=O)c2cccc3nsnc23)CC(C)O1 (stereo not given),84,90,-64,·
Cc1cccn2c(Nc3ccccc3)c(-c3cccs3)nc12,113,89,2,102
COc1ccc(-c2nc3c4ccccc4n(CC(=O)N4CCN(c5ccccc5OC)CC4)c(=O)n3n2)cc1,128,94,·,100
CSc1ccc(CNC(=O)c2cc3c(=O)n(Cc4ccco4)ccc3nc2C)cc1,108,103,·,104
O=[n+]1c(CO)c(CO)n([O-])c2ccccc21,86,86,·,103
NC(=O)c1c(N)n(-c2cccc(F)c2)c2nc3ccccc3nc12,120,90,-5,104
C=CCOc1c(Cl)cc(CNCCNC(=O)c2nonc2N)cc1OC,·,·,-14,94
O=S(=O)(CS(=O)(=O)NCc1cccs1)NCc1cccs1,107,97,-7,116
CCOC(=O)CSc1nc(Nc2ccc(OC)cc2)c2cnc(N(CC)CC)nc2n1,99,93,9,97
CCOc1ccccc1C(=O)Nc1cc2c(cc1N1CCOCC1)n(C)c(=O)n2C,94,94,-7,102
O=C(Cc1cccc2ccccc12)Nc1cccc(C(=O)N2CCOCC2)c1,94,83,-25,101
CCOC(=O)C1=C(C)N=c2s/c(=C\c3ccc(O)c(OC)c3)c(=O)n2C1c1ccc(OC)c(OC)c1 (stereo not given),·,·,-23,108
O=C(/C=C/c1ccco1)NC(=S)Nc1ccc(Cl)cc1,65,68,-6,162
CC(C)(C)C(=O)CSc1nc(-c2cccnc2)c(C#N)c(=O)[nH]1,87,110,-2,101
CC(C)(C)OC(=O)n1ccc2cc(Br)ccc21,127,73,-11,105
N=c1n(CC(=O)c2ccco2)c2ccccc2n1Cc1ccccc1,106,82,·,99
COCCN1Cc2cccc(C(=O)NC(C)CCc3ccco3)c2C1=O (stereo not given),88,78,-18,101
O=C(Oc1cc(Cl)cc(Cl)c1)c1cccc(C(F)(F)F)n1,105,93,11,106
Cc1c(C(=O)Nc2cccc(Cl)c2)oc2ccc(S(=O)(=O)N(C)C3CCCCC3)cc12,110,93,·,99
C[N+]12CCCCC1C(CN1C(=O)c3ccccc3C1=O)CCC2 (stereo not given),100,81,-21,·
Cc1ccccc1CCN1C(=O)CCC1(C)C(=O)N1CCCC1 (stereo not given),88,89,-15,107
CN1CC(O)C(O)C(O)C1CO (stereo not given),·,·,-27,104
Cc1nc2ccccc2nc1OCc1cc(=O)n2cc(Br)ccc2n1,99,64,-73,·
CCn1c(O)c(C=NCC2CCCCC2)c(=O)n(CC)c1=S,102,85,-12,·
O=C(CCS(=O)(=O)c1ccc(Br)s1)Nc1c(F)cccc1F,86,87,3,113
COC(=O)c1ccc(Cl)cc1NC(=O)NCCc1c(C)nn(C)c1C,85,86,·,104
CCOC(=O)c1cc(-c2ccc(F)cc2)n(CC(=O)NCc2ccc(OC)cc2)c1C,108,85,·,106
Nc1cc(=O)nc(SCC(=O)Nc2ccccc2)n1CCc1ccccc1,94,86,-13,109
CCCCn1c(O)c(C#N)c(C)c(N=Nc2ccc(OC)cc2)c1=O,99,97,-21,222
CC1(C)CC(=O)c2sc3nc(-c4ccc(Br)cc4)cn3c2C1,114,85,23,99
Cc1ccc(CNC(=O)[C@@H](c2ccccc2)N2Cc3ccccc3C2=O)cc1,87,88,·,101
CCOc1ccc(NC(=O)CN(Cc2ccccc2)S(=O)(=O)c2ccc(C)cc2)cc1,108,68,·,102
CCC(=O)Nc1c2c(nn1-c1ccccc1)CS(=O)C2 (stereo not given),104,90,9,110

Additional compounds follow.
mol,Sa growth inh,Sa growth inh second temp,HCMV UL50-53 inh,GIV Gai3 FP
COc1ccc(Cl)cc1NC(=O)N1Cc2c(sc3c2CCN(C)C3)-n2cccc2C1C (stereo not given),·,·,-27,112
CN(C)c1ccc(/C=N/n2c(=O)[nH][nH]c2=O)cc1,107,78,-18,98
Cc1nc(N)cc(C[n+]2csc(CCO)c2C)n1,96,91,-38,·
Cc1ccc(C)n1NC(=O)c1ccc(Cl)cc1,·,·,7,104
CC(C)OC(=O)C(C)Nc1ccc(F)c(Cl)c1 (stereo not given),115,98,-8,105
COCCCn1c(=O)c2ccccc2n(CC(=O)NC2CCCC2)c1=O,95,95,4,100
COCCCNC(=O)C(C)n1c2ccccc2c2cnn(C)c(=O)c21 (stereo not given),100,80,-29,103
Cc1cccc(C(=O)OC2CCCN(C)C2)c1C (stereo not given),101,80,-28,·
Nc1c(-c2n[nH]c(=S)n2-c2ccc(Cl)cc2Cl)cnn1-c1ccccc1,86,84,-38,105
Cn1c2ccccc2c2cnn(CC(=O)Nc3ccccc3C(F)(F)F)c(=O)c21,107,94,-13,105
Cc1nn(Cc2nnc(-c3cc(C(F)(F)F)cc(C(F)(F)F)c3)o2)c(C)c1Br,93,85,-23,104
COc1ccccc1N1CCN(CCCNC(=O)Cn2cnc3onc(C)c3c2=O)CC1,96,92,-9,95
COc1ccccc1NC(=O)c1ccc(N2CC3CC(C2)c2cccc(=O)n2C3)c(NC(=O)c2cccnc2)c1 (stereo not given),102,74,-37,103
CNCc1ccc(C(C)(C)C)cc1,90,91,-23,·
NC1(C(=O)O)CC1,·,·,-8,106
CC(NC(=O)CSc1nncn1C)c1ccccc1 (stereo not given),99,97,-2,·
CCn1c(C(=O)O)c(CNCc2cccs2)c2ccc(C)cc21,84,94,-35,115
